Compound activity from PubChem BioAssay.
Env fusion inh: inhibitors of HIV Env-mediated cell fusion | HeLa-JRFL Env/CEM21 cell fusion, luciferase | inhibition, % at 12.3 µM | 360,000 tested, 1.1% active | AID 651610;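 active = mean replicate inhibition score of at least 50 and every replicate individually at or above 50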;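 note: 0% = plate neutral controls and 100% = maraviroc near 300 nM; one replicate is shown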
* = called active by the depositor; [ ] = dose if it differs, or a comment. A portion of the library (hit frequency here may not be typical).

compound | Env fusion inh
O=C(C[C@H]1CC[C@@H]2[C@H](COC[C@@H](O)CN2CCc2ccccc2)O1)NCCCN1CCOCC1 | -20.6[16.7 µM]
CN1CCN(C(=O)C[C@H]2CC[C@@H]3[C@H](COC[C@H](O)CN3C(=O)Cc3ccccc3)O2)CC1 | 16.6[16.7 µM]
CCCNC(=O)N1CC2(C1)CN(C(=O)CC)[C@@H](CO)c1[nH]c3cc(OC)ccc3c12 | -19.9[16.7 µM]
CO[C@@H]1CN(C)C(=O)c2cc(NS(=O)(=O)c3ccccc3C)ccc2OC[C@@H](C)N(S(=O)(=O)c2ccccc2)C[C@H]1C | 16.9[16.7 µM]
COc1ccccc1-c1ccc2c(c1)[C@H]1[C@H](CCN1C(=O)C1CCC1)[C@H](CO)N2 | 47.9[16.7 µM]
COc1ccc(C2CC(=O)C(c3ccc(C)cc3)=CN2Cc2ccccc2)cc1 (stereo unspecified) | -4.2
CCC(=O)N1C[C@@H](C)[C@@H](OC)CN(C)C(=O)c2ccc(NC(=O)C3CCOCC3)cc2OC[C@@H]1C | -16.7[16.7 µM]
CC(C)NC(=O)Nc1ccc2c(c1)C(=O)N([C@@H](C)CO)C[C@H](C)[C@H](CN(C)C(=O)CCC(F)(F)F)OCCCC[C@H](C)O2 | -5.5[16.7 µM]
CO[C@H](CN(C)C(=O)C1CC1)[C@@H](C)CN(C(=O)Nc1ccc(C(F)(F)F)cc1)[C@@H](C)CO | -3.1[16.7 µM]
Cc1noc(C)c1NC(=O)N(C)C[C@@H]1Oc2c(NC(=O)Nc3ccccc3)cccc2C(=O)N([C@@H](C)CO)C[C@@H]1C | 1.0[16.7 µM]
O=C(Cc1ccccn1)N1CC(=O)N2[C@H](CO)[C@@H](c3ccc(C#CC4CCCC4)cc3)[C@H]2C1 | -1.9[16.7 µM]
O=C(OCc1ccccc1)N1Cc2ccnnc2CC1c1ccccc1-c1ccc(C(F)(F)F)cc1 (stereo unspecified) | 9.9
CC[C@H](NC(=O)[C@@H](Cc1ccccc1)NC(=O)[C@H]1O[C@@H](n2ccc(=O)[nH]c2=O)[C@H](O)[C@@H]1O)c1ccccc1 | 25.6
CC(C)NC(=O)Nc1ccc2c(c1)CC(=O)N([C@@H](C)CO)C[C@H](C)[C@@H](CN(C)Cc1ccc(C(=O)Nc3ccccc3N)cc1)O2 | 19.7[16.7 µM]
COc1ccc(CNC(=O)N(C)C[C@@H]2OCc3ccccc3-c3ccccc3C(=O)N([C@@H](C)CO)C[C@@H]2C)cc1 | 39.1[16.7 µM]
C[C@@H]1CN([C@H](C)CO)C(=O)c2cccc(NC(=O)Nc3cccc4ccccc34)c2O[C@@H]1CN(C)S(=O)(=O)c1ccc(F)cc1 | -2.4[16.7 µM]
CNC[C@H]1Oc2ccc(NC(=O)C3CC3)cc2CC(=O)N([C@H](C)CO)C[C@@H]1C | 4.2[16.7 µM]
C[C@H]1CN([C@@H](C)CO)S(=O)(=O)c2ccc(Br)cc2O[C@@H]1CN(C)C(=O)C1CC1 | -4.2[16.7 µM]
COc1ccc2c3c([nH]c2c1)[C@@H](CO)N(C(=O)NC(C)C)CC31CCN(C(=O)NC(C)C)CC1 | -0.5[16.7 µM]
O=C(CCN1CCCCC1)NCC[C@H]1CC[C@H](NS(=O)(=O)c2cccc(Cl)c2)[C@@H](CO)O1 | 20.2[16.7 µM]

2 entries from above in another layout.
CCC(=O)N1C[C@@H](C)[C@@H](OC)CN(C)C(=O)c2ccc(NC(=O)C3CCOCC3)cc2OC[C@@H]1C
  Env fusion inh: -16.7[16.7 µM]

CC(C)NC(=O)Nc1ccc2c(c1)C(=O)N([C@@H](C)CO)C[C@H](C)[C@H](CN(C)C(=O)CCC(F)(F)F)OCCCC[C@H](C)O2
  Env fusion inh: -5.5[16.7 µM]

The listing continues:
compound | Env fusion inh
CN1[C@H](C(=O)Nc2ccccc2)[C@@H](CO)[C@@H]2Cn3c(ccc(-c4ccc(F)cc4)c3=O)[C@@H]21 | 15.9[16.7 µM]
CCCN(C)C[C@@H]1OCCCC[C@@H](C)Oc2ccc(NS(=O)(=O)c3ccc(C)cc3)cc2C(=O)N([C@H](C)CO)C[C@@H]1C | 4.8[16.7 µM]
CNC[C@H]1Oc2ncc(C3=CCCC3)cc2C(=O)N([C@@H](C)CO)C[C@H]1C | 0.5[16.7 µM]
O=C(Cc1ccccc1)OC(COCc1ccccc1)C(=O)NCc1ccccc1 (stereo unspecified) | -6.4[16.7 µM]
CCCc1nc2c3ccccc3ccn2c1Cc1ccccc1OC | 17.9
Cc1ccc2nc(CN(C)C(=O)[C@@H](Cc3ccccc3)NC(=O)[C@H]3O[C@@H](n4ccc(=O)[nH]c4=O)[C@H](O)[C@@H]3O)[nH]c2c1 | -9.0
O=C(C[C@@H]1C[C@H]2c3cc(NC(=O)C4CCC4)ccc3O[C@H]2[C@H](CO)O1)NCc1cccc(F)c1 | -10.4[16.7 µM]
CCNC(=O)Nc1ccc2c(c1)C(=O)N(C)[C@H]1CC[C@H](CC(=O)N[C@@H](C)c3ccccc3)O[C@H]1CO2 | 3.0[16.7 µM]
CN1CCN(C(=O)c2cc3c(c(-c4cccc(C5=CCCC5)c4)n2)[C@H](CCO)N([S@@](=O)C(C)(C)C)C3)CC1 | 13.5[16.7 µM]
COC(=O)[C@]12C[C@H](CC(=O)NCc3ccc(C)o3)C(=O)N(Cc3ccccc3)C1=C[C@H](C(C)(C)C)O[C@@H]2C | 12.7
COc1cccc(S(=O)(=O)Nc2ccc3c(c2)[C@H]2C[C@H](CC(=O)NCc4ccccc4F)O[C@@H](CO)[C@H]2O3)c1 | 6.6[16.7 µM]
COCC(=O)N1C[C@H](C)[C@@H](OC)CN(C)C(=O)c2ccc(NC(=O)NC(C)C)cc2OC[C@@H]1C | 10.4[16.7 µM]
Cc1ccc(S(=O)(=O)Nc2ccc3c(c2)C(=O)N([C@@H](C)CO)C[C@H](C)[C@@H](CN(C)Cc2ccccc2)O3)cc1 | -4.2[16.7 µM]
O=C(C(=O)N1CCC(CNC(=O)c2cccnc2Cl)CC1)c1cc2ccccc2o1 | -9.8
C[C@@H]1CCCCO[C@@H](CN(C)CC2CC2)[C@H](C)CN([C@H](C)CO)C(=O)c2cc(NS(=O)(=O)c3ccccc3)ccc2O1 | -13.7[16.7 µM]
CCN=C1NC(c2cccc(Cl)c2)C(C(=O)OC)=C(C)N1Cc1ccccc1C(F)(F)F (stereo unspecified) | -4.8
O=C(C[C@@H]1C[C@H]2c3cc(NC(=O)Cc4ccncc4)ccc3O[C@H]2[C@@H](CO)O1)NCc1ccccn1 | -20.9[16.7 µM]
CCCCNc1cccc2c1S(=O)(=O)N[C@H](CC(C)C)CO2 | 16.7
CC(C)NC(=O)Nc1ccc2c(c1)CC(=O)N([C@H](C)CO)C[C@H](C)[C@H](CN(C)Cc1ccc(C(=O)Nc3ccccc3N)cc1)O2 | -75.5[16.7 µM]
COC(=O)[C@]12C[C@H](CC(=O)NCCc3ccccc3OC)C(=O)N(Cc3ccccc3)C1=C[C@H](C1CCCC1)O[C@@H]2C | 9.0

Nothing new here: 3 of the compounds above.
compound | Env fusion inh
CN1[C@H](C(=O)Nc2ccccc2)[C@@H](CO)[C@@H]2Cn3c(ccc(-c4ccc(F)cc4)c3=O)[C@@H]21 | 15.9[16.7 µM]
CCCN(C)C[C@@H]1OCCCC[C@@H](C)Oc2ccc(NS(=O)(=O)c3ccc(C)cc3)cc2C(=O)N([C@H](C)CO)C[C@@H]1C | 4.8[16.7 µM]
CNC[C@H]1Oc2ncc(C3=CCCC3)cc2C(=O)N([C@@H](C)CO)C[C@H]1C | 0.5[16.7 µM]

Following part.
compound | Env fusion inh
C[C@@H]1CCCCO[C@@H](CN(C)CC2CC2)[C@H](C)CN([C@@H](C)CO)C(=O)c2cc(NC(=O)NC3CCCCC3)ccc2O1 | -12.4[16.7 µM]
CCCCc1c(-c2ccccc2OC)ncn1Cc1c(F)cccc1F | -9.8
CO[C@@H]1CN(C)C(=O)c2ccc(NC(=O)CC(F)(F)F)cc2OC[C@@H](C)N(S(=O)(=O)c2cn(C)cn2)C[C@@H]1C | -21.3[16.7 µM]
CCCNC(=O)N1[C@@H]2c3ccc(-c4ccc(F)cc4)c(=O)n3C[C@@H]2[C@@H](CO)[C@@H]1C(=O)N1CCCCC1 | -0.8[16.7 µM]
CO[C@@H]1CN(C)C(=O)c2cc(NC(C)=O)ccc2OC[C@H](C)N(Cc2cccnc2)C[C@@H]1C | 9.7[16.7 µM]
CC(C)[C@@H](C)/C=C/[C@@H](C)[C@H]1CC[C@@H]2[C@]1(C)CCC1[C@]23C=C[C@]2(C[C@@H](O)CC[C@]12C)N(c1cnccn1)O3 (stereo partly specified) | -14.2
CO[C@H]1CN(C)C(=O)c2cc(NC(=O)NC(C)C)ccc2OC[C@H](C)N(CCC(F)(F)F)C[C@H]1C | -9.2[16.7 µM]
CCCn1cnnc1CNC(=O)[C@@H](Cc1ccccc1)NC(=O)[C@H]1O[C@@H](n2ccc(=O)[nH]c2=O)[C@H](O)[C@@H]1O | 10.0
C[C@H]1CCCCO[C@H](CN(C)C(=O)Nc2ccc(F)cc2)[C@@H](C)CN([C@@H](C)CO)C(=O)c2cc(N(C)C)ccc2O1 | 17.6[16.7 µM]
C=CCN=C1NC(c2ccc(Cl)cc2)C(C(=O)OC)=C(C)N1C (stereo unspecified) | 55.1*
CCCC(=O)Nc1ccc2c(c1)OC[C@@H](C)N(C(=O)c1cccnc1)C[C@H](C)[C@H](OC)CN(C)C2=O | 3.7[16.7 µM]
C[C@@H]1CN([C@@H](C)CO)C(=O)CCCn2cc(nn2)CO[C@H]1CN(C)CC1CCCCC1 | -14.3[16.7 µM]
O=C(C[C@@H]1C[C@H]2c3cc(NC(=O)C4CCOCC4)ccc3O[C@H]2[C@@H](CO)O1)NCc1ccc2c(c1)OCO2 | -1.6[16.7 µM]
CCCN1[C@@H]2c3ccc(-c4ccc(F)cc4)c(=O)n3C[C@H]1[C@H](CO)[C@H]2C(=O)NCCOC | 16.4[16.7 µM]
CCN1[C@@H]2c3ccc(C4=CCCC4)c(=O)n3C[C@@H]2[C@@H](CO)[C@@H]1C(=O)NCc1cccc(OC)c1 | -0.5[16.7 µM]
C/C=C/c1ccc2c(c1)O[C@@H](CN(C)Cc1ccc(C(=O)O)cc1)[C@H](C)CN([C@@H](C)CO)S2(=O)=O | 11.6[16.7 µM]
Cn1cnc(CCNC(=O)C[C@@H]2CC[C@H]3[C@@H](COC[C@H](O)CN3C(=O)Nc3ccc(C(F)(F)F)cc3)O2)c1 | 5.1[16.7 µM]
CO[C@@H]1CN(C)C(=O)c2cc(NC(=O)Nc3ccc(C(F)(F)F)cc3)ccc2OC[C@@H](C)NC[C@@H]1C | 1.6[16.7 µM]
CN1c2ccc(-c3cccc(C#N)c3)cc2[C@@H]2[C@@H](CCN2C(=O)C2CC2)[C@H]1CO | 8.1[16.7 µM]
CC(C)(O)C#Cc1cccc(-c2nc(C(=O)N3CCN(Cc4ccccc4)CC3)cc3c2[C@@H](CCO)N(S(=O)C(C)(C)C)C3)c1 (stereo partly specified) | 11.2[16.7 µM]

An excerpt from above in order of their number in Env fusion inh, ascending:
compound | Env fusion inh
Cc1ccc2nc(CN(C)C(=O)[C@@H](Cc3ccccc3)NC(=O)[C@H]3O[C@@H](n4ccc(=O)[nH]c4=O)[C@H](O)[C@@H]3O)[nH]c2c1 | -9.0
COC(=O)[C@]12C[C@H](CC(=O)NCCc3ccccc3OC)C(=O)N(Cc3ccccc3)C1=C[C@H](C1CCCC1)O[C@@H]2C | 9.0
CC[C@H](NC(=O)[C@@H](Cc1ccccc1)NC(=O)[C@H]1O[C@@H](n2ccc(=O)[nH]c2=O)[C@H](O)[C@@H]1O)c1ccccc1 | 25.6

Following part.
compound | Env fusion inh
Cc1ccc(S(=O)(=O)NC[C@H]2CC[C@@H]3[C@@H](CN3Cc3cc(-c4ccccc4)on3)O2)cc1 | 5.1[16.7 µM]
CN1C(=O)c2cc(NS(C)(=O)=O)ccc2OC[C@H]2O[C@@H](CC(=O)NCc3ccc(-c4ccccc4)cc3)CC[C@H]21 | 4.0[16.7 µM]
C[C@@H]1CN([C@H](C)CO)C(=O)c2cc(NS(=O)(=O)c3ccc(Cl)cc3)ccc2O[C@@H](C)CCCCO[C@@H]1CN(C)C(=O)CCC(F)(F)F | -23.8[16.7 µM]
COc1cccc(NC(=O)C[C@H]2CC[C@H]3[C@@H](COc4ccc(NC(=O)C5CCOCC5)cc4C(=O)N3C)O2)c1 | 10.6[16.7 µM]
COCC(=O)Nc1ccc2c(c1)OC[C@@H](C)N(C(=O)CC1CC1)C[C@@H](C)[C@H](OC)CN(C)C2=O | 1.2[16.7 µM]
CO[C@@H]1CC[C@H]2CCN(C)C(=O)[C@@H](C)CN(C)C(=O)c3cccc(C#N)c3OC[C@@H]1O2 | 24.9[16.7 µM]
CCOC(=O)C1=C(C(=O)OCC)C2N(Cc3ccc(C#N)cc3)c3ccccc3[C@@]23C[C@@H](C(=O)OC)N(S(=O)(=O)c2ccc(OC)cc2)C3=N1 (stereo partly specified) | -18.3
Brc1ccc(CN2CCN(c3ncc(Cc4ccccc4)cn3)CC2)cc1 | 19.7
COc1ccccc1-c1cccc2c3c([nH]c12)[C@@H]1C[C@H]2[C@@H](C(=O)N1CC3)[C@H](C)ON2C | 3.5
CO[C@H](CN(C)S(=O)(=O)c1cccc(Cl)c1)[C@@H](C)CN([C@@H](C)CO)S(=O)(=O)c1ccc(Cl)cc1 | 37.4[16.7 µM]
O=C(NCC1CCCCC1)[C@@H]1[C@@H](CO)[C@@H]2Cn3c(ccc(-c4cncnc4)c3=O)[C@H]1N2 | 4.0[16.7 µM]
C[C@H](CO)N1C[C@H](C)[C@@H](CN(C)Cc2ccc(C(=O)O)cc2)Oc2ccc(NC(=O)c3ccncc3)cc2CC1=O | 15.8[16.7 µM]
COC(=O)[C@]1(CC(C)C)NC=C(C(=O)c2ccccc2)[C@@H]1c1cccs1 | 14.4
COc1ccc(S(=O)(=O)Nc2ccc3c(c2)CC(=O)N([C@H](C)CO)C[C@H](C)[C@@H](CN(C)Cc2ccc(C(=O)Nc4ccccc4N)cc2)O3)cc1 | 22.7[16.7 µM]
COC(=O)[C@]12C[C@H](CC(=O)N3CCC(c4ccccc4)CC3)C(=O)N(Cc3ccccc3)C1=C[C@H](C(C)C)O[C@@H]2C1CC1 | -26.3
COC(=O)N1C[C@H](OC(=S)Nc2ccc(OC)cc2OC)[C@H]2C[C@@H]1c1ccccc1O2 | 13.0
